# Arbovirus anti: antivirals against arbovirus infection, primary screen, cell-based, full library, 10K replicate subset; arbovirus infection cell-based antiviral screen; inhibition, % at 10 µM; 200,000 compounds, 0.37% hits;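 active means inhibition from about 30%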;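 further: bluetongue infection of BSR cells; cell survival read as ATP light after 72 h; 0% = infected wells without compound and 100% = uninfected wells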
# RecA intein inh: Mtb RecA intein splicing inhibitors, primary screen, biochemical, fluorescence, HTS | AID 2221, 2009 | inhibition, %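 (about 9 µM by stock and volumes)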 | cell-free RecA intein splicing | Protein RecA (Mycobacterium tuberculosis (strain ATCC 25618 / H37Rv)), P9WHJ3 | 290,000 compounds, 0.75% hits; in the data active means inhibition above about 30%; inconclusive means no clear call, values can overlap the other calls;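 further: 0% = vehicle wells and 100% = reference inhibitor control wells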
# Target sequence (P9WHJ3 whole entry, looked up): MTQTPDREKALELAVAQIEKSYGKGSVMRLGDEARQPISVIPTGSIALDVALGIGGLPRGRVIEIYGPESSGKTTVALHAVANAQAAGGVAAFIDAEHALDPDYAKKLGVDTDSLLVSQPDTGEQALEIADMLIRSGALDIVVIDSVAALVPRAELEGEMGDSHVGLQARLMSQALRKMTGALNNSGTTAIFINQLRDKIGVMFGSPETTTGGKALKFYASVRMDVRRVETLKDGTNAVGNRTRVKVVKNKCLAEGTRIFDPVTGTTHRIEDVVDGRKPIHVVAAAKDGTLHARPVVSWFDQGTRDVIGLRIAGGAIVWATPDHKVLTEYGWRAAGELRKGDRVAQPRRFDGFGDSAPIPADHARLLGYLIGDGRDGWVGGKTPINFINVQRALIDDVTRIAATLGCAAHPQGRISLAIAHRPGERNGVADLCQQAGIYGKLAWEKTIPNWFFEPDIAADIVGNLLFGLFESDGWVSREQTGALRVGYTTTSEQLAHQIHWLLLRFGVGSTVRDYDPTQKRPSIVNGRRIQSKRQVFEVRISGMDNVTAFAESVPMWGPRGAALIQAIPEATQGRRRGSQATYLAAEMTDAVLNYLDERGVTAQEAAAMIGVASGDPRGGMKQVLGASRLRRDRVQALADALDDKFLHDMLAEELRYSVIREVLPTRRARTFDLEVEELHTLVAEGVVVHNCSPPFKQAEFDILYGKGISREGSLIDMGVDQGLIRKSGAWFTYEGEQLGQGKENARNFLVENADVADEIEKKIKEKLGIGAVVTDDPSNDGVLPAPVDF
# YopH inh: YopH tyrosine phosphatase inhibitors, primary screen, biochemical, fluorescence Ex485/Em525; YopH tyrosine phosphatase [Yersinia enterocolitica]; inhibition, %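 (about 10 µM by stock and volumes)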; 140,000 compounds, 0.16% hits;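 active means inhibition of 50% or more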;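 further: controls were vehicle for no effect and minimum signal wells for full effect; inactives centre near -20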
# Mtb betalactam: beta-lactam sensitization of Mtb H37Rv, H37Rv; inhibition, % at 25 µM; 330,000 compounds, 0.27% hits; M. tuberculosis H37Rv growth with meropenem, percent inhibition; hits of this screen are not shown here; AID 434955, 2010;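 active means about 74% or more and at least 40 points above the plate without the antibiotic, then above 30% in a dose series; inconclusive means first-round hits that could not be retested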;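 further: growth measured after seven days incubation then overnight dye step; 0% = bacteria only wells and 100% = bacteria with antibiotic; twin plates without the antibiotic show which effects depend on it; some results filed as inactive read as strong as hits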
# Mtb H37Rv: M. tuberculosis H37Rv growth inhibitors, H37Rv strain (AID 1626); 220,000 compounds, 0.95% hits; inhibition, % at 10 µM, or IC50 in µM where a hit was titrated; M. tuberculosis H37Rv growth inhibition; higher % means a stronger effect;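 active means confirmed in a dose series; inconclusive means inhibition above 80% but not taken into the dose series; inactive means below 80% or under 30% at every dose of the series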;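 further: bacteria incubated seven days before Alamar blue readout; 0% = bacteria only wells and 100% = bacteria with antibiotic wells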
# Arbovirus anti repeat: second read-out of Arbovirus anti, no call of its own (marks repeat the call); inhibition, %; measured here: 10K subset replicate screen; many hits read low in the repeat;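 first of two repeat runs on a subset; 0% = infected and 100% = uninfected wells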
# An asterisk follows results filed as active; u = inconclusive; x = no result given; & = joins results of further samples. This is a subset. The share of hits here may be higher or lower than overall.
SMILES,Arbovirus anti,RecA intein inh,YopH inh,Mtb betalactam,Mtb H37Rv,others
O=C(CN(C1CCCCC1)S(=O)(=O)c1ccc(Cl)cc1)N1CCOCC1,4,0.4,-8,-7,4%,
C#CC1(NC(=O)NC(C)C)CCCCC1,15,1.0,x,-3,-2%,
COc1ccc(-c2nnc(SCc3c(C)noc3C)o2)cc1,3,-2.1,x,4,12%,
COc1ccc(CN2CCNC(=O)C2CC(=O)NCc2cc(C)n(C)n2)c(F)c1 (centres undefined),x,1.8,x,-7,x,
O=C(OCn1nnc2ccccc2c1=O)c1ccc(Br)o1,-2,-5.3,-11,98,u,
CN(c1ccccc1)S(=O)(=O)c1cc(C(=O)c2nccn2C)ccc1Cl,-9,1.9,-46,11,0%,
O=C(c1cc(COc2c(F)cccc2F)on1)N1C[C@H]2CC[C@H]1C2,x,-2.6,x,3,x,
COC(=O)c1cccc(NC(=O)CN2CCN(c3ccc(OC)cc3)CC2)c1,-13,-3.8,-14,10,-8%,
O=C(c1ccc2c(c1)N(Cc1ccccc1)CCS2)N1CCC2(CC1)OCCO2,x,5.1,x,-3,x,
Cc1cc(O)cc(O)c1-c1onc(C(F)(F)F)c1-c1cscn1,5,-2.0,-40,-6,-17%,
COc1cccc(NC(=S)N(CCCN2CCOCC2)C(C)c2cc3cccc(OC)c3o2)c1 (centres undefined),11,3.1,x,-6,-1%,
COC/C=C/C1=CC2=CC(=O)C(C)(OC(=O)c3cnc4ccccc4n3)C(=O)C2=CN1c1ccccc1 (centres undefined),x,4.7,x,-8,-5%,
CCN1C(=O)C(CC(=O)Nc2ccc(Br)cc2)N(CCCc2ccccc2)C1=S (centres undefined),-32,21,-24,79,14%,
O=C(NC(=S)Nc1ccc(N2CCN(C(=O)c3ccccc3)CC2)cc1)c1cccs1,-11,0.3,x,86,65%,
CCOc1ccc(C2C(C(=O)c3ccc(C)o3)=C(O)C(=O)N2Cc2cccnc2)cc1 (centres undefined),x,3.6,x,-4,x,
O=C(Nc1ccc(NC(=O)c2ccccc2)nc1)c1ccncc1,-11,-2.3,x,-15,-9%,
COc1cc(SC)ccc1C(=O)NCCc1c[nH]c2ccccc12,x,5.4,x,-1,x,
COC1=C/C(=C/c2c(N)n3cc(C)sc3nc2=O)C=CC1=O,9,12,-33,4,-8%,
COc1ccc(C2c3c(oc4ccc(Cl)cc4c3=O)C(=O)N2CCN2CCOCC2)cc1 (centres undefined),x,-0.5,x,-6,-4%,
NC(=O)C1CCN(C(=O)C2c3ccccc3C(=O)N3CCc4ccccc4C23)CC1 (centres undefined),-3,-5.3,-16,1,2%,
COC(CNC(=O)[C@H](Cc1ccccc1)N1Cc2ccccc2C1=O)OC,x,-0.2,x,-13,x,
CC(C)(C)c1nnc(NC(=O)c2ccc(Cl)nc2)s1,8,-0.1,x,14,18%,
O=C(Nc1cc2c3c(c1)C1CCCC1CN3CC1CCCC21)c1ccc([N+](=O)[O-])cc1 (centres undefined),18,6.2,-7,11,9%,
COCCNC(=O)C(c1ccc(O)cc1)N(Cc1ccco1)C(=O)CCC(=O)Nc1nccs1 (centres undefined),3,-0.5,-5,0,-10%,
CCN1C(=O)c2cccc3c(S(=O)(=O)Nc4ccccc4OC)ccc1c23,-6,-4.6,-47,0,x,
# Other records follow:
SMILES,Arbovirus anti,RecA intein inh,YopH inh,Mtb betalactam,Mtb H37Rv,others
O=C(O)CCCn1c(O)c(C=C2N=c3ccccc3=N2)sc1=S,x,-0.5,x,58,-10%,
COc1ccc(Nc2cccc3ccccc23)cc1,x,1.1,x,99,x,
CC(C)CNC(=O)c1ccccc1NC(=O)/C=C/c1cccc([N+](=O)[O-])c1,0,-1.4,-3,-1,8%,
COc1cc(Cn2c(=O)oc3ccc(C)cc32)ccc1OC(C)C,8,1.2,3,-3,1%,
COc1cccc(C(=O)NCC(=O)N/N=C/c2cn[nH]c2-c2ccccc2)c1,12,0.8,x,-1,-1%,
CCC1CN(C(=O)N2CCC(C(=O)NCc3ccc(OC)cc3OC)CC2)c2ccccc2O1 (centres undefined),x,1.4,x,-1,x,
O=C(/C=C/c1ccco1)N1CCN(c2ncccn2)CC1,0,-0.2,-37,-3,-2%,
CN(C)c1cc(Cl)c2nonc2c1N,x,5.8,x,-11,-7%,
O=C(OCc1ccccc1F)c1ccc2c(c1)-c1ccccc1C2=O,2,1.8,-15,u,4%,
O=C(CCn1c(=O)oc2ccc(Cl)cc21)N1CCN(Cc2ccccc2)CC1,x,0.5,x,0,x,
O=C(Cn1nc(-c2ccc(Cl)cc2)ccc1=O)NCCCN1CCN(Cc2ccccc2)CC1,-18,-1.7,-25,0,x,
CCOC(=O)C1=C(c2ccccc2)NC(SC)=C(C#N)C1c1ccco1 (centres undefined),7,11,-61,x,54%,
CC(C)N1CC(O)=C(c2ccccc2)C1=N,2,1.1,-18,8,-6%,Arbovirus anti repeat=4
COc1ccc(CCNC(=O)C2CCN(C(=O)c3ccc(C(C)(C)C)cc3)CC2)cc1OC,x,-1.6,x,-3,x,
O=C(Nc1ccc2c(c1)OCO2)c1ccc(=O)[nH]n1,x,1.6,x,-7,-5%,
CC(Oc1cc(Cl)ccc1Cl)C(=O)N/N=C\c1ccnn1C (centres undefined),-12,-2.4,-17,5,31%,
O=C(NCCOc1ccccc1)C(c1ccccc1)c1ccccc1,1,0.5,-22,-7,x,
O=C(CNS(=O)(=O)c1cccs1)N1CCCCC1,x,0.4,x,-2,x,
O=C1N=C(N2CCN(c3ccccc3)CC2)S/C1=C/c1cccs1,8,7.2,-22,66,51%,
O=C(CSc1ncccn1)NN=C1CCCCCC1,1,-1.1,-21,-3,-1%,
OCCOCCOc1cccc2[nH]ccc12,9,-2.3,x,0,9%,
CCOc1ccc(CN=C(N)N=C(N)N)cc1Cl,4,2.1,-31,-6,6%,
Cn1c(=S)[nH]c(=O)c2ncc(=O)[nH]c21,-4,1.6,x,-6,0%,
CNC(=O)C12CC3CC(CC(Cl)(C3)C1)C2,-7,-0.8,-9,1,3%,
COc1cccc(/C=N/NC(=O)C(=O)NCc2ccco2)c1O,-14,12,-14,9,-17%,

# The final five compounds of the part before are carried over, then new ones follow:
SMILES,Arbovirus anti,RecA intein inh,YopH inh,Mtb betalactam,Mtb H37Rv,others
OCCOCCOc1cccc2[nH]ccc12,9,-2.3,x,0,9%,
CCOc1ccc(CN=C(N)N=C(N)N)cc1Cl,4,2.1,-31,-6,6%,
Cn1c(=S)[nH]c(=O)c2ncc(=O)[nH]c21,-4,1.6,x,-6,0%,
CNC(=O)C12CC3CC(CC(Cl)(C3)C1)C2,-7,-0.8,-9,1,3%,
COc1cccc(/C=N/NC(=O)C(=O)NCc2ccco2)c1O,-14,12,-14,9,-17%,
CC(Sc1cccc[n+]1[O-])C(=O)Nc1ccc([N+](=O)[O-])cc1Cl (centres undefined),0,1.8,x,-5,4%,
COc1cc(OC)c(NC(=O)CCNS(=O)(=O)c2cc(Br)cnc2N)cc1Cl,5,3.5,-47,-4,-7%,
COc1ccc(Cc2nc3ccc(C(=O)N(C)Cc4cc(C)[nH]n4)cc3o2)cc1OC,x,28,x,-4,x,
Cc1ccc(C)c(NC(=O)CNS(=O)(=O)c2ccccc2)c1,-1,0.2,-29,-5,2%,
CN(CC(=O)Nc1cccc(F)c1)C(=O)c1cc([N+](=O)[O-])ccc1N1CCCCC1,x,4.2,x,-11,x,
CC(Cc1nnc(N)s1)c1ccccc1 (centres undefined),x,0.8,x,-8,x,
CC1=NN(Cc2c[nH]c3ccccc23)C(C)(C)C1,0,x,x,0,-1%,
Cc1ccc(NC(=O)CC2S/C(=N/c3nccs3)N(C)C2=O)cc1C (centres undefined),7,-2.9,6,-1,-3%,
O=C(O)c1nc(N2CCOCC2)nc(N2CCOCC2)n1,-1,4.6,40,-2,-12%,
Cc1ccc(OCC(=O)N2CCCC(CCC(=O)N(C)CCc3ccccn3)C2)cc1 (centres undefined),0,x,x,-6,-2%,
Cc1ccccc1-c1c(C)oc2cc(O)ccc2c1=O,2,0.9,-36,8,2%,Arbovirus anti repeat=0
Cc1n(Cc2ccccc2)c2cc([N+](=O)[O-])ccc2[n+]1Cc1ccccc1,x,-1.2,x,-11,x,
C=CCn1c(O)c(C(C)=O)c(=O)[nH]c1=O (tested in a mixture with another compound),x,x,x,-11,3%,
Cc1ccc(N(CC(=O)NCC2CCCO2)C(=O)CNS(=O)(=O)c2ccc(Cl)cc2)cc1 (centres undefined),x,3.4,x,-2,x,
CCOc1ccc(CCNC(=O)CCc2nnc3ccc(N4CCCC4)nn23)cc1OCC,x,-1.0,x,u,x,
Cc1ccc(NS(=O)(=O)c2c(C)nc3sccn3c2=O)cc1C,x,-3.2,x,-2,x,
NCCc1nnc(SCc2c(Cl)cccc2Cl)o1,x,0.6,x,-5,-8%,
Cc1occc1C(=O)Nc1ccc2c(c1)OCCO2,-2,0.9,-22,-19,-3%,
COc1ccc(NS(=O)(=O)c2ccc(C)c(C(=O)NNC(=O)c3csc(N4CCOCC4)n3)c2)cc1,x,-1.2,x,-1,x,
Cc1ccc(C(C)C)c(OCC(=O)Nc2ccccc2N2CCN(C)CC2)c1,1,11,-8,8,12%,
C=CCOc1cccc(C2C(C(=O)c3cc4ccccc4o3)=C(O)C(=O)N2c2cc(C)on2)c1 (centres undefined),x,-1.0,x,2,x,
O=C(NCCCNCc1ccccc1)c1ccc(/C=N/O)nc1,3,-1.4,-42,4,-5%,Arbovirus anti repeat=3
Cc1ccc(C(C(=O)NC(C)(C)C)N(Cc2cccnc2)C(=O)C(=O)NC2CCCCC2)o1 (centres undefined),3,-0.4,x,-4,-3%,
N#CCn1c(Cc2ccccc2)nc2ccccc2c1=O,x,-0.4,x,-1,x,
Cc1nn(CC(=O)NCc2ccccc2)c(C)c1[N+](=O)[O-],5,-2.9,-9,-21,-4%,
# Further compounds follow.
SMILES,Arbovirus anti,RecA intein inh,YopH inh,Mtb betalactam,Mtb H37Rv,others
CCOc1cccc(SCc2noc(C(=O)NC(C)C)c2C(=O)O)c1,-2,-0.2,-140,-2,-18%,
COc1ccc(C(=O)Nc2ccc3[nH]ccc3c2)cc1OC,x,2.4,x,-6,x,
COCCCn1c(SCC(=O)N2CCOCC2)nnc1-c1ccco1,x,0.5,x,-1,x,
CCc1nc(N)c(C#N)c(-c2cccc3ccccc23)c1C,1,-0.4,-28,1,x,
COc1ccccc1NC(=O)NC(=O)c1ccccc1,x,0.2,x,1,x,
O=C(C(=O)N1CCc2ccccc2C1)c1cn(CC(=O)N2CCOCC2)c2ccccc12,8,-4.1,-27,-4,-1%,
CC(C)COC(=O)C1C(=O)CC(C)(O)C(C(=O)OCC(C)C)C1c1cccnc1 (centres undefined),1,0.0&0.1,-30,-3,-1%,
COc1ccc(NC(=O)CCCn2c(=O)c3sccc3n(Cc3cccc(C)c3)c2=O)cc1,-1,-1.0,-13,6,-4%,
O=C(CN(Cc1ccco1)C(=O)c1nsc(Cl)c1Cl)NC1CCCCC1,10,1.8,x,-6,-6%,
CCN(CC)C(=O)c1sc(NC(=O)Cc2ccccc2)c(C#N)c1C,4,-1.3,-27,1,-2%,
CCOc1ccc(-n2ccc(=O)c(C(=O)O)n2)cc1,x,0.5,x,-7,x,
CCN(CC)CCC(=O)N1c2ccccc2CCc2ccc(NC(=O)OC)cc21,x,-3.7,x,7,x,
COc1cccc(-c2ccc(C#N)c(SCC(=O)NCc3ccco3)n2)c1,-12,-3.3,x,2,-14%,
O=C(COc1ccc2ccccc2c1)N1CCN(Cc2ccncc2)CC1,9,1.4,-10,-3,-14%,
NS(=O)(=O)c1ccc(NC(=S)Nc2ccn(Cc3cccc4ccccc34)n2)cc1,11,2.1,x,-1,13%,
COc1cccc(-n2c(/C=C/c3ccc(O)c(O)c3)nc3ccccc3c2=O)c1,-2,-8.5,x,-2,-2%,
CC(C)c1nc(N2CCN(C(=O)c3ccccc3)CC2)c(C#N)c2c1COC(C)(C)C2,-32,13,29,4,-10%,
CC1(C)Cc2cccc(OCC(=O)Nc3nccs3)c2O1,-3,0.9,-32,8,1%,
CCOC(=O)COc1ccc2c(C#N)c3ccccn3c2c1,2,-17,x,x,1.7µM*,
O=C(Nc1ccccc1)c1ccc(Br)c(S(=O)(=O)Nc2cccnc2)c1,-9,-0.6,-15,0,-6%,
COc1ccccc1N(Cc1ccccc1)S(=O)(=O)c1cccc(C(=O)Nc2cccc(C)n2)c1,x,6.6,x,0,x,
CN(CC(=O)Nc1ccc(Cl)cc1)C(=O)CNC(=O)c1ccc2c(c1)OCO2,x,-1.1,x,1,x,

# Screening data deposited in PubChem by several laboratories.
